PINK1 modulator – A Quantitative High throughput Screen to Identify Chemical Modulators of PINK1 Expression; 410,000 compounds, 0.2% hits; Potency, µM (titrated, usually from 76.6 µM), inactives show at the top dose activation (PINK1 increase), hits mostly activators; PINK1 immunofluorescence, high-content cytometry, 24 h; active = well fitted activation curve with a large enough effect; inconclusive = small, poorly fitted or top-dose-only effect; inactive = flat fitted curve, though single readings scatter; cell line not stated here;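 note: potency is the fitted concentration of half-maximal effect; % of control where 0% means no effect; nearly all actives have a fitted effect of over 65% in size; a mitochondrial uncoupler was the plate control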
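PINK1 protein level read as immunofluorescence by microplate cytometer in a fixed, stained stable cell line after 24 h exposure to five compound concentrations, with CCCP as control.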
D2 agonist – Beta-Arrestin HTS for Positive Allosteric Modulators of the Human D2 Dopamine Receptor: Agonists. D(2) dopamine receptor (Homo sapiens), P14416. DiscoveRx PathHunter D2 beta-arrestin, luminescence, 90 min; 100% = 57 uM dopamine signal. activation, % (concentration not given with the values). 360,000 compounds, 0.084% hits; in the data active = activation above about 40%; inconclusive = about 15% to 40%; inactive = below about 15%; note: the text of the record calls up to 30% inactive
Target sequence (P14416 whole entry, looked up): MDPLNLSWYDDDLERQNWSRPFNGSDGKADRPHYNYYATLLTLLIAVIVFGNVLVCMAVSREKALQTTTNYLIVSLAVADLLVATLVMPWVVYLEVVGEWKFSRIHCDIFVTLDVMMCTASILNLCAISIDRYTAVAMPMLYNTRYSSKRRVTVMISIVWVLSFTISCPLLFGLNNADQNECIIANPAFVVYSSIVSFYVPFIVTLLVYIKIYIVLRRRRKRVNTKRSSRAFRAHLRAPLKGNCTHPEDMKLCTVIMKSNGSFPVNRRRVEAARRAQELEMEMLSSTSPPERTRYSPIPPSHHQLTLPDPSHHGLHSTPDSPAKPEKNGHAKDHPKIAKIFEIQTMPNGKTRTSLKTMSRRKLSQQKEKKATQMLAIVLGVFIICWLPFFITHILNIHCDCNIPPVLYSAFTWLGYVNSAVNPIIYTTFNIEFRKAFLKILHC
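DiscoveRx PathHunter D2 beta-arrestin cells (2,100/well) attached overnight, then compound-stimulated 90 min at 37 C in HBSS/10 mM HEPES/0.1% Tween-20 buffer; beta-galactosidase complementation read by luminescence after 1 h at ambient temperature. Dopamine 57 uM final (EC100) as control.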
gsp agonist – qHTS for Agonist of gsp, the Etiologic Mutation Responsible for Fibrous Dysplasia/McCune-Albright Syndrome: qHTS; gsp mutant cells, cAMP HTRF, 30 min; control for the full effect not named in the record; Potency, µM (top dose mostly 76.9 µM), for inactives: at the top dose activation (cAMP increase), hits mostly activators; 340,000 compounds, 0.13% hits; active = well fitted activation curve with a large enough effect; inconclusive = small, poorly fitted or top-dose-only effect, or another doubt; inactive = no such curve, though single readings can be large or run the other way; cell line not stated here;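 note: phosphodiesterase inhibitor Ro 20-1724 added with compounds to block cAMP breakdown; potency is the fitted concentration of half-maximal effect; nearly all actives have a fitted effect of over 60% in size; about a fifth of the inactives were tested at one dose only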
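Cells in DMEM/10% FBS with G418 were pretreated with compounds in DMSO plus […] (300 uM stock) for 30 min at 37C. cAMP was measured by HTRF (cAMP-d2 plus anti-cAMP antibody-K) after 30 min at room temperature.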
ClpP mod – qHTS Assay for Activators of ClpP; purified B. subtilis ClpP, FRET peptide cleavage, 20 min; 340,000 compounds, 1.9% hits; AID 651965, 2013; Potency, µM (titrated, usually from 57.5 µM), inactives show top-dose activity change, negative = active; ATP-dependent Clp protease proteolytic subunit (Bacillus subtilis (strain 168)), P80244; active = well fitted falling curve with a large enough effect; inconclusive = small, poorly fitted or top-dose-only effect; inactive = no such curve, though single readings can be large or run the other way; note: potency is the fitted concentration of half-maximal effect; the source files actives as falling curves though it sought activators and does not explain the sign; nearly all actives have a fitted effect of over 65% in size; many hits overshoot -100%
Target sequence (P80244 whole entry, looked up): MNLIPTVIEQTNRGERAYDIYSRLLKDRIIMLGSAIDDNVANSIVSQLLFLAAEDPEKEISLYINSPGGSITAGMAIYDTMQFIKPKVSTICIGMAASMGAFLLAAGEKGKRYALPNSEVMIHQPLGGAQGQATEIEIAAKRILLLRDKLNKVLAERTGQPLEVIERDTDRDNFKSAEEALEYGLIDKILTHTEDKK
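Buffer: 100 mM Tris/HCl pH8, 100 mM KCl, 0.05% low protease BSA, 2.5% glycerol, 0.01% Tween-20. ClpP 10 microg/mL final; 20 min RT; delta FRET normalized to ADEP and DMSO controls.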
Sfp PPTase inh – qHTS Assay for Inhibitors of Bacillus subtilis Sfp phosphopantetheinyl transferase (PPTase); 4'-phosphopantetheinyl transferase ffp (Bacillus subtilis), Q9F4F7; Biochemical Sfp PPTase activity, qHTS; Potency, µM, without a hit: max response, negative = inhibition, hits mostly inhibitors; 310,000 compounds, 3.5% hits; active = well fitted inhibition curve with a large enough effect; inconclusive = small, poorly fitted or top-dose-only effect, or another doubt; inactive = no such curve, though single readings can be large or run the other way;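 note: the enzyme is Sfp with the accession as filed and its product quenches rhodamine fluorescence; potency is the fitted concentration of half-maximal effect; 0% = enzyme reaction without inhibitor and -100% = no enzyme wells; top concentration of the series not given in the record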
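Reaction rates are the 30-min fluorescence difference (ex 525, em 598 nm) in wells containing 15 nM Sfp, 5 uM rhodamine-CoA and 12.5 uM BHQ-2-YbbR at pH 7.6 with 10 mM MgCl2.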
gsp antag – qHTS for Antagonists of gsp, the Etiologic Mutation Responsible for Fibrous Dysplasia/McCune-Albright Syndrome: qHTS | gsp-mutant cells, cAMP HTRF, 30 min; control for the full effect not named in the record | Potency, µM (doses to about 76.9 µM), for inactives: at the highest dose activity change, negative = inhibition, usual class: inhibitors | 340,000 compounds, 0.4% hits | AID 624288, 2012; active = falling curve of any shape with a large fitted effect; inconclusive = falling curve, mostly with a smaller effect; inactive = flat or rising curve; cell line not stated here;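 note: intracellular cAMP measured with PDE inhibitor Ro 20-1724 present during compound exposure; potency is the fitted concentration of half-maximal effect; % is set by controls: 0 for no effect and ±100 for the full control effect; nearly all actives have a fitted effect of over 65% in size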
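G418-selected cells were plated in DMEM/10% FBS for 16-24 h at 37C, then treated with compounds plus the PDE inhibitor […] (300 uM solution added) for 30 min at 37C. Intracellular cAMP was measured by HTRF after 30 min lysis at room temperature.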
Menin-MLL FL inh – qHTS Assay for Inhibitors Targeting the Menin-MLL Interaction in MLL Related Leukemias: Competition With Fluorescein Labeled MLL-derived Peptide. Fluorescence polarization, fluorescein-MLL peptide displacement from menin. FP activity change, % at 61.4 µM. 290,000 tested, under 10 active. AID 1766, 2009; inconclusive = falling polarisation curve, or a change in total fluorescence; inactive = total fluorescence flat and polarisation flat or rising; no compound was filed as active; the % refers to the polarisation; negative = inhibition;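 note: % of control where 0% means no effect; inhibitors lower the polarisation; unlabelled MLL peptide was the positive control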
* marks the source's active call; other numbers are inactive results; ? = inconclusive; . = not tested or not shown; & = joins results of further samples; [ ] = remark or other dose.

SMILES	PINK1 modulator	D2 agonist	gsp agonist	ClpP mod	Sfp PPTase inh	gsp antag	Menin-MLL FL inh
CC(C)CC(OC(=O)c1nsc(Cl)c1Cl)C(=O)NCc1cccs1 (stereo not drawn)	1.0%	-0.4	-22%	-3.2%	9%	7%	-0.5
Cc1sc2nc(CC(=O)NN)[nH]c(=O)c2c1C	-2.3%	-1.7	19%[15.4 µM]	.	?	-2%	1.2
CC1=CSC2=NC(=O)/C(=C\c3cccn3-c3ccc([N+](=O)[O-])cc3)C(=N)N12	15%	-2.6	?	1.1%	1µM*	-7%	3.4
Cc1cc(C)c(NC(=O)/C(=C/c2ccccc2)c2ccccc2)c(C)c1	?	-4.4	-4%	-0.7%	-4%	?	8.0
O=C(COC(=O)c1cnccn1)NCCc1ccc(Cl)cc1	0.3%	0.3	-7%[15.4 µM]	.	.	7%	.
CC(=O)NCCn1c(SCc2ccc(C)cc2C)nc2ccccc2c1=O	7.4%	-1.4	-10%	-0.7%	-6%	-9%	2.9
Cc1cccc(Nc2nnc(SCC(=O)N(C)C3CCS(=O)(=O)C3)s2)c1C (stereo not drawn)	-0.3%	-1.7	-10%	1.2%	18%	8%	0.7
CC(C)c1ccc(OCc2ccc(C(=O)NN3CCN(C)CC3)o2)cc1	5.1%	-3.1	-7%[15.4 µM]	.	-11%	18%	-1.1
CCOC(=O)C1CCCN(S(=O)(=O)CCNC(=O)c2ccc3c(c2)OCO3)C1 (stereo not drawn)	-6.1%	1.7	-3%	-15%	.	-8%	.
CC(C)OC(=O)N(C)C[C@@H]1OCc2cn(nn2)CCCC(=O)N([C@@H](C)CO)C[C@H]1C	2.3%	-3.3	-6%	-13%	.	.	.
CC(C)(C)OC(=O)N[C@@H](COCc1ccccc1)C(=O)N[C@@H](CO)[C@H](O)[C@@H]1C[C@@H]1C(=O)N1CCCC1	-0.3%	-0.4	18%	-3.7%	10%	10%	0.1
O=C(Cn1nnc(-c2ccccc2)n1)N1CCN(S(=O)(=O)c2ccc(Cl)cc2)CC1	-3.0%	-0.1	?	-4.3%	2%	-5%	4.8
CC(C)CN(C(=O)COC(=O)C1=COCCO1)c1c(N)n(Cc2ccccc2)c(=O)[nH]c1=O	1.4%	-0.6	0%	-1.8%	.	16%	.
O=C(NCc1ccncc1)c1cc2ccccc2nc1Cl	2.0%	-0.6	-8%	-7.0%	11%	5%	-0.1
Cc1ccc(S(=O)(=O)c2cc3c(=O)n4ccccc4nc3n(C3CCCC3)c2=N)cc1	2.3%	3.0	-33%[inhibitor]	.	-1%	-3%	?
Cc1ccc(S(=O)(=O)N(CC(=O)N2CCC(C(N)=O)CC2)c2cccc(C(F)(F)F)c2)cc1	4.2%	-4.4	-12%	0.4%	9%	16%	4.1
COCCCNC(=O)c1c(N)n(-c2ccc3c(c2)OCO3)c2nc3ccccc3nc12	9.4%	-2.9	-8%	?	-20%	-19%	-16
Nc1cccc(Oc2ccc([N+](=O)[O-])cc2)c1	-0.2%	-5.0	-23%	1.2%	16%	5%	-2.0
Cc1cccc(C)c1OCc1cc(C(=O)NCc2cn(C)nc2C)no1	0.4%	0.9	?	0.2%	11%	-7%	-0.1
O=C(c1cn[nH]c1)c1cc(F)ccc1O	0.7%	-5.6	26%	-1.0%	-6%	7%	-0.8

Arranged by heavy-atom count (descending): three of the compounds above.
SMILES	PINK1 modulator	D2 agonist	gsp agonist	ClpP mod	Sfp PPTase inh	gsp antag	Menin-MLL FL inh
COCCCNC(=O)c1c(N)n(-c2ccc3c(c2)OCO3)c2nc3ccccc3nc12	9.4%	-2.9	-8%	?	-20%	-19%	-16
Cc1cccc(C)c1OCc1cc(C(=O)NCc2cn(C)nc2C)no1	0.4%	0.9	?	0.2%	11%	-7%	-0.1
Nc1cccc(Oc2ccc([N+](=O)[O-])cc2)c1	-0.2%	-5.0	-23%	1.2%	16%	5%	-2.0

(further entries)
SMILES	PINK1 modulator	D2 agonist	gsp agonist	ClpP mod	Sfp PPTase inh	gsp antag	Menin-MLL FL inh
CC(C)(C)c1cc(NC(=O)c2ccco2)n(-c2ccccc2)n1	4.0%	3.5	6%	.	8%	7%	-1.9
Cc1ccc(CCNC(=O)c2nn(C)c3c2CS(=O)(=O)c2ccccc2-3)cc1	2.0%	4.6	-42%[inhibitor]	-7.5%	3%	-22%	.
CCCc1[nH]c2ccc(C#N)cc2c1CCC	?	4.5	.	-28%	4%	-9%	-4.2
Cc1cc(C(=O)CCC(=O)N2CCN(S(=O)(=O)c3ccccc3)CC2)c(C)s1	-1.2%	-2.0	-13%[15.4 µM]	-0.9%	.	-8%	.
Cn1c(SCC(=O)Nc2cc([N+](=O)[O-])ccc2F)nnc1C(F)(F)F	1.9%	-5.3	-2%	-1.2%	6%	-2%	.
COc1ccc(NC(=O)CSc2nncn2C)cc1	2.8%	-0.8	-2%[15.4 µM]	-1.7%	4%	-6%	?
CCCCC(=O)Nc1cccc(NC(=O)c2cccc([N+](=O)[O-])c2)c1	3.6%	-2.3	-5%	0.9%	3%	-32%	-3.0
O=C(O)c1ccc(C(=O)O)c(C(=O)c2ccccc2)c1	-1.6%	-1.5	?	2.7%	10%	9%	5.7
CCOC(=O)[C@H]1[C@H]2COc3cc(OC)ccc3[C@@H]2N2C(=O)c3cc(F)ccc3NC(=O)[C@@]12C	1.7%	0.2	.	-0.5%	.	-7%	.
CCCCNC(=O)c1cnc2n(c1=O)CCS2	0.3%	-2.8	-16%	-2.7%	9%	7%	-0.3
O=C(Nc1ccccc1)c1cc(C2CCCCN2S(=O)(=O)c2ccc(F)cc2F)on1 (stereo not drawn)	0.2%	-4.2	.	-1.6%	.	.	.
COc1ccc(CCN(C)C(=O)c2cc(=O)c3ccccc3o2)cc1OC	1.4%	-2.9	16%[15.4 µM]	.	11%	-18%	-0.8
COc1ccc(C2NC(=O)NC(C)=C2C(=O)Nc2cc(C)ccc2C)cc1OC (stereo not drawn)	-2.9%	-1.7	16%	-0.2%	19%	7%	-0.6
COc1ccc2[nH]cc(CCNc3ncnc4ccc(-c5ccoc5)cc34)c2c1	-0.8%	.	.	.	3%	.	-2.1
CC(C)(C)NC(=O)C1CCN(S(=O)(=O)c2cccc3nsnc23)CC1	0.1%	-3.3	27%	-2.1%	10%	1%	0.6
CC1=C(CC[C@@H](C)CO)OC2CC3C4CCC5CC(O)CCC5(C)C4CC(=O)C3(C)C12 (stereo partly drawn)	-0.7%	?	.	-1.2%	.	-31%	.
COc1ccc(-c2ccc(CN3C(C)C(=O)N(Cc4cn(Cc5ccco5)nn4)CCS3(=O)=O)cc2)cc1 (stereo not drawn)	-1.2%	1.0	-21%	-3.4%	.	.	.
COc1ccc(OC(C)C(=O)N2CCC(C)CC2)cc1 (stereo not drawn)	0.4%	-1.3	0%	-1.6%	21%	-1%	2.1
O=C(Cc1ccc(Cl)cc1)Nc1ccc(NC(=O)c2cccs2)cc1	5.4%	-2.1	-11%[15.4 µM]	.	-15%	5%	-3.7
CCC(C)n1c(-c2cccc(S(=O)(=O)N3CCOCC3)c2)n[nH]c1=S (stereo not drawn)	1.6%	3.6	3%	2.3%	.	-6%	.
CN(C)S(=O)(=O)N1CCC(Oc2ccc(C(=O)NCC(C)(C)CO)cc2)CC1	2.0%	-13	2%[15.4 µM]	0.5%	-8%	6%	1.3
COc1ccc(OC)c(-n2c(Cn3c(-c4ccccn4)nc4ccccc43)n[nH]c2=S)c1	1.4%	-5.2	-16%	-1.2%	25µM*	4%	2.8
Cc1nc2ccccc2c(=O)n1/N=C/c1ccc(O)cc1O	1.9%	-4.0	-45%[inhibitor]	.	-1%	-14%	0.6
Cc1ccc(CNc2c(C=O)c(=O)[nH]c3ccccc23)cc1	0.7%	1.3	13%[15.4 µM]	0.0%	14%	-19%	-5.3
COc1ccc(-c2coc3cc(OC)ccc3c2=O)cc1	7.2%	-2.7	.	-0.3%	.	-5%	.
CSc1ncccc1C(=O)OCc1ccccc1F	3.1%	0.5	4%	0.4%	-3%	2%	3.0
Cc1[nH]nc(-c2ccc(O)cc2O)c1Oc1ccccc1	.	0.0	8%	-2.7%	17%	?	3.8
Brc1ccc(OCc2nc(-c3ccccn3)n[nH]2)cc1	-0.8%	0.4	-17%	-5.3%	8%	2%	0.2
Cc1cccc(NC(=O)Cn2cnc3c(oc4ccccc43)c2=O)c1C	5.4%	-0.1	1%[15.4 µM]	-1.2%	15%	5%	1.4
CCOc1ccc(NC(=O)NNC(=O)c2cccnc2)cc1	2.3%	-3.7	-16%	-0.3%	13%	5%	.
CCOC(=O)c1sc(NC(=O)COC(=O)c2ccco2)nc1C	-1.2%	-0.1	-22%	0.5%	7%	-3%	-2.8
O=C(Cc1ccc([N+](=O)[O-])cc1)NC1CCCCCC1	1.8%	-4.6	-1%	-1.5%	-3%	-2%	-3.1
CCOC(=O)CC1C(=O)NCCN1S(=O)(=O)c1ccc(Br)cc1 (stereo not drawn)	0.9%	-2.7	6%[15.4 µM]	.	18%	12%	-5.0
O=P(C1=C(N2CCOCC2)/C(=C\c2ccccc2)CC1)(N1CCOCC1)N1CCOCC1	.	-0.3	3%	-20%	1%	-5%	0.5
Cc1onc(-c2c(Cl)cccc2Cl)c1-c1nnc(-c2ccc(Cl)cc2)o1	-2.1%	-4.0	-2%[15.4 µM]	-1.6%	-8%	-10%	5.6
Cc1ccc(NS(=O)(=O)c2ccc3c(c2)NC(=O)CCS3)cc1F	-0.9%&-1.3%	0.5	-13%	-0.7%	10%	11%	-7.7
